From PubChem BioAssay
ALR inh: inhibitors of human ALR sulfhydryl oxidase, primary screen, biochemical, H2O2 detection, HRP-luminol luminescence, single point; actives 3.8% (n = 290,000); inhibition, % (no concentration beside the values); purified ALR, DTT oxidation; FAD-linked sulfhydryl oxidase ALR (Homo sapiens), P55789;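 active = mean and each replicate at 75% or more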;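 also: stock transfer was 7.5 nL into about 7.5 µL; 0% = neutral wells and 100% = wells with inactivated enzyme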
Target sequence (P55789 whole entry, looked up): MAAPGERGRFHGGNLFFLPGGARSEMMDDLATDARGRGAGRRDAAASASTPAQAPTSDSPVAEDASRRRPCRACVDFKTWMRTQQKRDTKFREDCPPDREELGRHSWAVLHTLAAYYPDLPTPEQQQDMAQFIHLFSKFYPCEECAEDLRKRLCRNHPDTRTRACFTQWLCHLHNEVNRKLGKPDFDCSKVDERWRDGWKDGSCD
HNF4A DNA FP: change in binding of human HNF4A to DNA, primary screen, biochemical, fluorescence polarization, FITC-DNA; activity change, % at 10 µM; AID 1224865, 2016; actives 0.3% (n = 360,000); 1 h; in the data active = activity change above about 30%, passing the limit was not always enough;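 also: controls were the assay level and a saturating level of protein; the project sought stronger binding though the title names inhibitors; some compounds called inactive have numbers as strong as hits; positive values seem to mean higher polarization but the record does not say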
FGF22 binding: binders of human FGF22 protein, primary screen, FGF22 synaptogenesis inhibitor project, biophysical, thermal shift, single point; Fibroblast growth factor 22 (Homo sapiens), Q9HCT0; recombinant FGF22 thermal shift, SYPRO orange fluorescence; percent of sucrose octasulfate shift, DMSO zero; calls only at 9.99 µM; actives 1.5% (n = 340,000);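 active = melting point raised past a set limit in the mean and every replicate; three in four hits are not shown here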
Target sequence (Q9HCT0 whole entry, looked up): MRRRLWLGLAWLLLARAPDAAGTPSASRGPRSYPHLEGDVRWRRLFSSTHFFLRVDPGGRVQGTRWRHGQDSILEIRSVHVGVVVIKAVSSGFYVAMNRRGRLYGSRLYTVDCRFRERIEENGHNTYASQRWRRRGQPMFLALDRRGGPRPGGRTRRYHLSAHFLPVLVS
B2AR ag: beta2AR agonists driving receptor internalization, primary screen, cell-based, FAP fluorogen, flow cytometry. Beta-2 adrenergic receptor (Homo sapiens), P07550. Am2.2-beta2AR cells; reference of the scale not given here. response, % (test concentration not listed). actives 0.43% (n = 340,000). AID 504454, 2011;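 active = response above a set limit, near 3 SD of response in nonfluorescent compounds, cut at about 42% in these data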;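 also: stock transfer was 100 nL into about 11 µL; a reference agonist was the positive control; negative values mostly stem from fluorescent compounds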
Target sequence (P07550 whole entry, looked up): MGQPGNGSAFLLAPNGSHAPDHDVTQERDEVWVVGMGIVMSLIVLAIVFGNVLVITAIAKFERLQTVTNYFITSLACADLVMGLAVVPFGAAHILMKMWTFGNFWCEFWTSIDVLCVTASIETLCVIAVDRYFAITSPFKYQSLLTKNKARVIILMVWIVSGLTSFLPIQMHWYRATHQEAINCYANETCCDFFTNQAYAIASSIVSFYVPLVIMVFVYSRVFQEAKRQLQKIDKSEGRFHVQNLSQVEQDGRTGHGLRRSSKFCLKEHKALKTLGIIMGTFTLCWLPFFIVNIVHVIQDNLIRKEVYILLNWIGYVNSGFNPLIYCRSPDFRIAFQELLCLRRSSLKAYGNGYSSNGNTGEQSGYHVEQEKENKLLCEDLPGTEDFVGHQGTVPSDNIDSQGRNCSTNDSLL
E coli growth: E. coli growth inhibition, primary screen, OD600; actives 0.21% (n = 330,000); OD600 absorbance (test concentration not listed); Escherichia coli growth, 23 h; active compounds read low;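 active = OD600 absorbance below the run mean of sample wells minus 3.6 SD, in any replicate, cut at about 0.56 in these data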;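 also: stock transfer was 300 nL into about 60 µL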
Ecoli rRNA inh: reduced GFP signal of wild-type E. coli, primary screen, bacterial rRNA inhibitor project, GFP/RFP fluorescence, OD600, single point; E. coli WT GFP vs humanized-ribosome RFP mutants, 24 h; active compounds read low; DMSO median 0, no signal -100; GFP signal change (wild-type ribosome), % (no concentration beside the values); actives 1.6% (n = 350,000); AID 720706, 2013;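 active = significant combined selectivity score with lowered wild-type GFP, culture density cut under 30%, mutant RFP and density less affected; inactive = any of these conditions unmet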; also: one replicate is shown; some compounds called inactive have numbers as strong as hits
UCH37 DUB inh: inhibitors of human UCH37 deubiquitinase, primary screen, biochemical, Ub-AMC cleavage, fluorescence. Ubiquitin carboxyl-terminal hydrolase isozyme L5 (Homo sapiens), Q9Y5K5. purified proteasome/UCH37. inhibition, % (test concentration not listed). actives 0.33% (n = 330,000);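 active = mean of two replicates above 20%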;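 also: 0% = compound-free wells with enzyme and 100% = wells lacking proteasome; stock transfer was 100 nL into about 20 µL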
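system = Proteasome-associated human UCH37 deubiquitinase | amount = 0.15 nM proteasome as dispensed | medium = pH 7.4 Tris-HCl (50 mM) with ovalbumin, ATP-MgCl2, DTT | incubation = 30 min preincubation with enzyme, 25 min cleavage at room temperature | detection = AMC fluorescence 355/460 nm | read-out basis = percent inhibition | controls = no-proteasome and no-compound wells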
Ecoli rRNA inh OD600: recorded beside Ecoli rRNA inh, whose call it bears; OD600 change, %; measured here: OD600 growth;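 optical density of the mix in the first replicate; 0 = DMSO median and -100 = no signal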
Ecoli rRNA inh RFP: recorded beside Ecoli rRNA inh, whose call it bears; RFP signal change, %; measured here: RFP humanized mutant strains;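 first replicate; 0 = DMSO median and -100 = no signal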
* marks the source's active call; other numbers are inactive results; i = inactive; . = not tested or not shown. Some of the compounds tested. The share of hits here may be higher or lower than overall.

Order of values: ALR inh, HNF4A DNA FP, FGF22 binding, B2AR ag, E coli growth, Ecoli rRNA inh, Ecoli rRNA inh OD600, Ecoli rRNA inh RFP, UCH37 DUB inh
1. CCCCCOc1ccc(C(=O)CCC(=O)NC(C)c2ccc(S(N)(=O)=O)cc2)cc1 (stereo unspecified)
    -5, 12, i, -6, 0.65, -8, -14, 0.3, -0.9
2. CCCn1c(-c2ccc(F)cc2)cnc1SCC(=O)O
    -7, 0.7, ., 14, 0.68, ., ., ., 4.3
3. COc1ccccc1OCCSc1nnnn1C1CCCCC1
    1, -1.9, ., -9, 0.71, ., ., ., -0.7
4. Cc1nc(N2CCC(C)CC2)c(C#N)c(C)c1[N+](=O)[O-]
    -4, -2.6, i, -6, 0.69, -25*, -13*, -0.4*, 3.6
5. O=C(c1ccc(S(=O)(=O)N2CCCC2)cc1)N1CCN(c2cccc(Cl)c2)CC1
    -4, -1.1, i, 0, 0.68, -31, -26, -1.7, 0.9
6. CCOC(=O)C1CCCN(c2cc(NCCCO)c([N+](=O)[O-])c3nonc23)C1 (stereo unspecified)
    -16, ., i, ., 0.69, -4, -10, -5.7, 14
7. c1ccc(-c2ccnc3nc(-n4cccc4)nn23)cc1
    -25, 0.2, ., -12, 0.71, ., ., ., -24
8. Oc1cc2c(cc1O)[C@@H](c1ccccc1)CNCC2
    ., 1.4, i, 3, ., ., ., ., 2.1
9. CCOC(=O)C1CCN(c2c(NCc3ccc(C(=O)N(C)Cc4ccccc4)cc3)c(=O)c2=O)CC1
    -5, 3.0, i, -7, 0.7, -16, -18, 4.9, 3.1
10. CC(=O)OC1COC(n2ccc3ccccc32)C(OC(C)=O)C1OC(C)=O (stereo unspecified)
    ., 3.3, ., 5, 0.72, ., ., ., -1.5
11. NS(=O)(=O)c1ccc(CCNC(=O)CSc2ccc(Cl)cc2Cl)cc1
    -3, -0.8, ., -9, 0.67, 2, 5, -1.0, 3.0
12. O=C(Nc1ccc(F)c(F)c1)c1cccnc1
    -11, 2.4, ., -8, 0.7, ., ., ., 1.5
13. CC(Nc1ccc2c(c1)OCCO2)C(=O)N1CCc2ccccc21 (stereo unspecified)
    69, 0.0, i, 4, 0.65, 15, 5, 1.3, 1.0
14. CN(Cc1cn(C)nc1-c1cccc(Cl)c1)CC1CCCCO1 (stereo unspecified)
    2, -2.5, i, 15, 0.69, 7, 9, 0.4, -0.9
15. C/C=C(/C)C(=O)O[C@@H]1Cc2c(ccc3ccc(=O)oc23)OC1(C)C
    1, 0.6, ., -4, ., ., ., ., -7.4
16. COc1ccc(C(=O)COC(=O)CCn2nnc(-c3cccs3)n2)cc1
    -3, -3.6, ., 10, 0.72, ., ., ., 0.4
17. Cc1ccc(NC2CCCN(C(=O)c3ccoc3)C2)cc1C (stereo unspecified)
    99*, 2.6, i, 9, 0.68, 0, -4, 0.2, 0.6
18. CC(=O)NC(C(=O)N1CCC(c2nc3ccccc3s2)CC1)C(C)C (stereo unspecified)
    4, -1.0, i, 3, 0.68, 1, 6, 1.0, 1.9
19. COC(=O)c1nc(NC(=O)c2ccc(C(C)(C)C)cc2)n[nH]1
    ., -1.4, i, 7, 0.69, -10, -3, -5.8, 2.3
20. CCC(=O)NC(=S)Nc1ccc(NC(=O)CC)cc1
    -9, 2.8, ., -22, 0.66, ., ., ., -0.3
21. O=C(COc1ccccc1)NCC1(N2CCCCC2)CCCCC1
    -2, -0.1, i, 0, 0.71, 11, 17, 1.6, 2.3
22. CCOC(=O)C(=O)Nc1sc(C(=O)N2CCOCC2)c(C)c1C#N
    -2, 1.8, i, 1, 0.68, -2, 11, -5.1, 14
23. CNC(=O)c1cc2cc(OC)ccc2n1CCN(Cc1ccccc1)Cc1ccccc1
    -1, -0.2, ., 6, 0.78, ., ., ., -8.4
24. Cc1ccc2c(c1)C1(OCCCO1)C(=O)N2
    -2, -4.6, i, 8, 0.63, 2, 4, -1.7, 1.5
25. CCCCCSc1nc2c(cnn2-c2ccccc2)c(=O)[nH]1
    1, -1.1, ., 11, 0.73, ., ., ., 4.3
26. Cc1ccccc1-n1ncc2c1CC(C)(C)CC2NC(=O)CCC(F)(F)F (stereo unspecified)
    0, -0.5, i, -4, 0.65, -7, -13, -0.3, 1.3
27. Cc1ccc(-n2ncc(C(=O)N3CCN(C(=O)c4ccco4)CC3)c2C2CCN(C(=O)OC(C)(C)C)CC2)cc1C
    0, 2.4, i, 7, 0.62, 13, 10, 1.3, 0.3
28. O=C(NCCc1ccco1)C(=O)NCC1OCCCN1S(=O)(=O)c1ccc(F)cc1 (stereo unspecified)
    -1, -1.5, i, 2, 0.69, 2, 0, 2.5, 4.0
29. O=C(NCCCN1CCOCC1)c1cc(-c2cccs2)on1
    -5, 1.1, i, -13, 0.62, 15, 1, -2.0, 2.0
30. COC(=O)[C@H](CO)NS(=O)(=O)c1ccc(C)cc1
    ., 2.6, i, -2, 0.73, 15, 20, 5.0, 1.3

The closing two compounds of the section above are carried over, then new ones follow:
Order of values: ALR inh, HNF4A DNA FP, FGF22 binding, B2AR ag, E coli growth, Ecoli rRNA inh, Ecoli rRNA inh OD600, Ecoli rRNA inh RFP, UCH37 DUB inh
29. O=C(NCCCN1CCOCC1)c1cc(-c2cccs2)on1
    -5, 1.1, i, -13, 0.62, 15, 1, -2.0, 2.0
30. COC(=O)[C@H](CO)NS(=O)(=O)c1ccc(C)cc1
    ., 2.6, i, -2, 0.73, 15, 20, 5.0, 1.3
31. COc1ccc2c(-c3ccccc3)cc(SCC(=O)N(C)C)nc2c1
    9, -0.5, i, 4, 0.63, -49*, -16*, -9.9*, -14
32. Cc1ccc(N=C2C(=S)N(c3ccc(C)cc3)C(=N)N2/N=C/c2ccc(Cl)cc2)cc1
    96*, 1.1, ., 8, ., ., ., ., .
33. N#CC1(NC(=O)CSc2nnc(Cc3ccccc3)o2)CCCCC1
    -1, -2.1, i, -1, 0.66, 4, 4, -1.1, 0.9
34. CN1CCN(S(=O)(=O)c2ccc(NC(=S)NC(=O)c3ccc(Cl)cc3)cc2)CC1
    ., -1.6, ., 3, 0.64, ., ., ., .
35. CCCNC(=O)C1(C)CCN1C(=O)C/C=C/c1ccccc1 (stereo unspecified)
    ., 1.0, i, ., ., 6, 11, -1.4, .
36. Cc1ccsc1/C=N/NC(=O)c1nnn(-c2nonc2N)c1CN(C)c1ccccc1
    0, 1.6, i, 7, ., 9, -20, 7.4, .
37. NC(c1csc(NC(=O)c2cccc(OC(F)(F)F)c2)n1)c1ccccc1Cl (stereo unspecified)
    ., 0.0, i, ., ., -57, -77, -17, .
38. S=C1SCN(Cc2ccccc2)CN1Cc1ccccc1
    ., -7.6, i, 0, 0.63, -14, -8, 0.4, 2.1
39. CCN(CC)C(=O)c1cccc(-c2csc(C(NC(C)=O)c3cccc(OC)c3)n2)c1 (stereo unspecified)
    ., 1.8, i, ., ., -37, -44, -8.2, .
40. COCCn1cnnc1SCC(=O)Nc1cccc(S(=O)(=O)N2CCCCCC2)c1
    -24, -3.3, i, -1, 0.67, 4, 3, -2.3, 1.9
41. COc1ccc(CN(CCC#N)CCC2(c3ccccc3)CC(C)N(C)CC2C)cc1OC (stereo unspecified)
    -24, 0.6, i, -15, ., 0, 3, -1.6, .
42. COc1ccc([C@H]2N[C@]3(CCCN(Cc4ccc(Br)cc4)C3=O)[C@H]3C(=O)N(Cc4ccccc4)C(=O)[C@@H]23)cc1
    ., -6.3, i, ., ., -1, -2, -3.8, .
43. CC1CCC2(CC1)NC(=O)N(NC(=O)CSc1nnc(NC3CC3)s1)C2=O (stereo unspecified)
    7, 0.8, i, -1, 0.7, ., ., ., -0.1
44. O=C(/C=C/c1ccco1)c1cccnc1
    -14, -12, i, 0, 0.65, 4, 8, 3.6, 3.4
45. CC(C)COC(=O)N1CCCCC1c1cc(C(=O)NCc2ccccc2)no1 (stereo unspecified)
    ., 5.5, i, ., ., 10, -22, -13, .
46. N=C(N)c1ccc(N=Nc2c(O)ccc3c2[nH]c2ccccc23)cc1
    ., 99, i, -1, ., -30*, -13*, -13*, .
47. Nc1nc(Cl)nc2c1ncn2C1CCC(CO)O1 (stereo unspecified)
    ., 2.2, i, ., ., 13, 20, 0.3, .
48. Cc1cn([C@H]2C[C@H](O)[C@@H](CNC(=O)[C@@H]3CCCN3Cc3ccccc3)O2)c(=O)[nH]c1=O
    ., 6.2, i, ., ., 7, 8, -2.7, .
49. COc1cccc(C2C([N+](=O)[O-])=C(N)Oc3cc(C)oc(=O)c32)c1 (stereo unspecified)
    -3, 1.0, i, 0, 0.69, 2, -3, 2.1, 5.1
50. COC(=O)Cc1ccc(NC(=S)NCC(C)C)cc1
    -3, 0.6, i, -4, 0.68, 11, 12, 2.2, 3.2
51. COc1ccc(C(=O)NCCC(=O)N2CCC3(CC2)NCCc2[nH]cnc23)cc1
    -1, 7.2, i, 6, 0.6, 4, 8, 1.3, -0.5
52. CCOC(=O)C1=C(C)N(C)C(=O)NC1c1cccc2ccccc12 (stereo unspecified)
    -1, -4.7, i, 2, ., -10, 0, 2.1, .
53. CCC(Cc1ccccc1)NC(=O)C1CC1 (stereo unspecified)
    1, -0.4, i, 4, 0.71, 8, 11, 0.6, 0.2
54. CC1CCCCN1S(=O)(=O)c1ccc(S(=O)(=O)N(Cc2ccccc2)Cc2ccco2)cc1 (stereo unspecified)
    -3, 0.0, ., 6, 0.7, 3, 0, 1.1, -1.2

Compound profiles, as listed above. Values in the order: ALR inh	HNF4A DNA FP	FGF22 binding	B2AR ag	E coli growth	Ecoli rRNA inh	Ecoli rRNA inh OD600	Ecoli rRNA inh RFP	UCH37 DUB inh
Shown for N=C(N)c1ccc(N=Nc2c(O)ccc3c2[nH]c2ccccc23)cc1 = .	99	i	-1	.	-30*	-13*	-13*	.
Shown for COC(=O)Cc1ccc(NC(=S)NCC(C)C)cc1 = -3	0.6	i	-4	0.68	11	12	2.2	3.2
Shown for CCOC(=O)C1=C(C)N(C)C(=O)NC1c1cccc2ccccc12 (stereo unspecified) = -1	-4.7	i	2	.	-10	0	2.1	.
Shown for CCCNC(=O)C1(C)CCN1C(=O)C/C=C/c1ccccc1 (stereo unspecified) = .	1.0	i	.	.	6	11	-1.4	.
Shown for CC1CCCCN1S(=O)(=O)c1ccc(S(=O)(=O)N(Cc2ccccc2)Cc2ccco2)cc1 (stereo unspecified) = -3	0.0	.	6	0.7	3	0	1.1	-1.2
